ID4 SMM = binders of human ID4 protein; P47928; small molecule microarray, Flag-ID4 binding, fluorescence F/B; calls only; 1.2% of 31,000 active; AID 624137;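 active means spot signal over background at p below 0.07 in all four prints; compounds were printed on slides so no solution concentration is given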;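 further: a binder raises fluorescence above local background on the spot; about 2 pmol printed per array spot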
Target sequence (P47928 whole entry, looked up): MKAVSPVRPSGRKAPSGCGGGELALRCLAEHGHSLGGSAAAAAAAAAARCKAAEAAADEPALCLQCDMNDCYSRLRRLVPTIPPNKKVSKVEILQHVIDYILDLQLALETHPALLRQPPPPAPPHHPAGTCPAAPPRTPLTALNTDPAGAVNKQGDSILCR
Calls only; i = inactive; + = active, no number. These rows are one share of the data, so the mix of outcomes need not match the whole.

SMILES	ID4 SMM
O=C(C[C@H]1C[C@H]2c3cc(NC(=O)NC4CCCC4)ccc3O[C@H]2[C@H](CO)O1)NCc1cc(F)ccc1F	i
CSc1ccccc1NC(=O)CN(c1cccc2ccccc12)S(C)(=O)=O	i
Cc1ccc2nc(-c3ccccn3)cc(C(=O)NCc3cnn(C)c3)c2c1	i
CC(C)[C@H]1C=C(C(=O)NCc2ccccc2)O[C@@H](OCc2ccc(CO)cc2)C1	i
COc1ccc([N+](=O)[O-])c(NC(=O)c2cnn3c(C(F)F)cc(-c4ccc(C)cc4)nc23)c1	i
Cc1ccc(S(=O)(=O)NC(C)C(=O)Nc2cc(C(F)(F)F)ccc2Cl)cc1 (centres undefined)	i
C[C@H](CO)N1C[C@H](C)[C@H](CN(C)S(C)(=O)=O)OCc2ccccc2-c2ccccc2C1=O	i
Cn1c(SCC(=O)Nc2c(F)cc(F)cc2Br)nnc1-c1cccnc1	i
Cc1noc(C)c1C(=O)n1cc2c(n1)-c1cc(F)ccc1SC2	i
COc1ccc([Si](C)(C)[C@H]2[C@H](CCn3cc(CCO)nn3)O[C@@]3(C(=O)N(Cc4cccc(N5CCOC5=O)c4)c4ccccc43)[C@@H]2C)cc1	i
CC(C)CC#Cc1ccc2c(c1)O[C@H](CN(C)C(=O)Cc1cccnc1)[C@@H](C)CN([C@@H](C)CO)S2(=O)=O	i
O=C(NCCCn1ccnc1)c1ccc(Cl)s1	i
O=C(C[C@H]1C[C@H]2c3cc(NC(=O)Nc4ccccc4)ccc3O[C@H]2[C@@H](CO)O1)NCc1cccnc1	i
CCC(=O)N(C)C[C@@H]1Oc2ncc(C#C[C@H](C)O)cc2C(=O)N([C@@H](C)CO)C[C@@H]1C	i
CC(=O)c1cccc(NC(=O)CSc2nnc(-c3cc4ccccc4cc3O)n2C)c1	i
CC1CCc2c(sc(NC(=O)c3ccc(Cn4cc(Br)cn4)o3)c2C(N)=O)C1 (centres undefined)	i
COc1ccc(C)cc1NC(=S)NCc1cnn(C)c1	i
O=C(C[C@H]1C[C@H]2c3cc(NC(=O)Cc4ccncc4)ccc3O[C@H]2[C@H](CO)O1)NCc1cc(F)ccc1F	i
CO[C@H](CN(C)S(=O)(=O)c1ccc(F)cc1)[C@H](C)CN(C(=O)Nc1ccccc1F)[C@H](C)CO	i
Cc1cccc(N(CC(=O)Nc2ccc(Cl)c(Cl)c2)S(C)(=O)=O)c1	i
C[C@@H]1CN([C@H](C)CO)C(=O)c2cc(/C=C/c3ccccc3)cnc2O[C@@H]1CN(C)Cc1cccnc1	i
Cc1ccc(NC(=O)COc2ccc(C(C)(C)C)cc2)c([N+](=O)[O-])c1	i
Cc1ccc(S(=O)(=O)N(C)C[C@H]2Oc3cc(C#Cc4ccccc4)ccc3S(=O)(=O)N([C@@H](C)CO)C[C@H]2C)cc1	i
COC(=O)C1=CO[C@@H](O[C@@H]2O[C@H](CO)[C@@H](O)[C@H](O)[C@H]2O)[C@H]2[C@@H]1C=CC21C=C([C@H](C)OC(=O)/C=C/c2ccc(O)cc2)C(=O)O1 (some centres undefined)	i

Structural class, the entries above with four or more nitrogen atoms (nine)
SMILES	ID4 SMM
Cc1ccc2nc(-c3ccccn3)cc(C(=O)NCc3cnn(C)c3)c2c1	i
COc1ccc([N+](=O)[O-])c(NC(=O)c2cnn3c(C(F)F)cc(-c4ccc(C)cc4)nc23)c1	i
Cn1c(SCC(=O)Nc2c(F)cc(F)cc2Br)nnc1-c1cccnc1	i
COc1ccc([Si](C)(C)[C@H]2[C@H](CCn3cc(CCO)nn3)O[C@@]3(C(=O)N(Cc4cccc(N5CCOC5=O)c4)c4ccccc43)[C@@H]2C)cc1	i
O=C(C[C@H]1C[C@H]2c3cc(NC(=O)Nc4ccccc4)ccc3O[C@H]2[C@@H](CO)O1)NCc1cccnc1	i
CC(=O)c1cccc(NC(=O)CSc2nnc(-c3cc4ccccc4cc3O)n2C)c1	i
CC1CCc2c(sc(NC(=O)c3ccc(Cn4cc(Br)cn4)o3)c2C(N)=O)C1 (centres undefined)	i
COc1ccc(C)cc1NC(=S)NCc1cnn(C)c1	i
C[C@@H]1CN([C@H](C)CO)C(=O)c2cc(/C=C/c3ccccc3)cnc2O[C@@H]1CN(C)Cc1cccnc1	i

Exported field by field: entries from further up
> Cc1ccc(S(=O)(=O)N(C)C[C@H]2Oc3cc(C#Cc4ccccc4)ccc3S(=O)(=O)N([C@@H](C)CO)C[C@H]2C)cc1
  ID4 SMM: i

> COC(=O)C1=CO[C@@H](O[C@@H]2O[C@H](CO)[C@@H](O)[C@H](O)[C@H]2O)[C@H]2[C@@H]1C=CC21C=C([C@H](C)OC(=O)/C=C/c2ccc(O)cc2)C(=O)O1 (some centres undefined)
  ID4 SMM: i

Remaining list, next part:
SMILES	ID4 SMM
CC(=O)N[C@H]1C=C[C@H](CC(=O)NCc2ccc(Cl)cc2)O[C@@H]1CO	i
COC(=O)c1ccc(Cl)c(NC(=O)CN(c2cccc(Cl)c2)S(C)(=O)=O)c1	i
COc1cc(O[C@@H]2O[C@H](CO[C@H]3OC[C@](O)(CO)[C@H]3O)[C@@H](O)[C@H](O)[C@H]2O)cc(OC)c1OC	i
Cc1noc(C)c1S(=O)(=O)N(C)C[C@@H]1OCc2ccccc2-c2c(n(C)c3ccccc23)C(=O)N([C@H](C)CO)C[C@H]1C	i
CN(CC(=O)Nc1ccc([N+](=O)[O-])cc1)S(=O)(=O)c1ccccc1	i
O=C(c1ccco1)n1nc(-c2ccc(Cl)cc2)nc1NCc1ccco1	i
COc1ccc(NC(=O)CSc2n[nH]c(-c3ccncc3)n2)cc1	i
COc1cccc(-c2cnc3c(c2)C(=O)N([C@H](C)CO)C[C@@H](C)[C@H](CN(C)Cc2cccnc2)O3)c1	+
CN(CC(=O)Nc1ccccc1C(=O)N1CCCC1)S(=O)(=O)c1ccc(Br)cc1	i
CC(C)(C)C1CCc2c(sc(NC(=O)COc3ccc(Cl)cc3)c2C(N)=O)C1 (centres undefined)	i
O=C(CSc1nnc(-c2cccc(Cl)c2)o1)Nc1ccccc1	i
C[C@H](CO)N1C[C@H](C)[C@H](CN(C)Cc2ccccc2)Oc2cc(Br)ccc2S1(=O)=O	i
Cc1ccccc1-c1cnc2c(c1)C(=O)N([C@@H](C)CO)C[C@H](C)[C@@H](CN(C)C(=O)c1ccccc1)O2	i
O=c1[nH]c2ccccc2n1CCCSc1nnc2c(n1)[nH]c1ccccc12	i
CCOC(=O)c1c(C)sc2c(C)c(C)[nH]c12	i
Cc1ccc(-c2cnc3c(c2)C(=O)N([C@H](C)CO)C[C@@H](C)[C@H](CN(C)C(=O)Cc2cccnc2)O3)cc1	i
CN(C)c1ccc2c(c1)[C@@H]1C[C@@H](CC(=O)NCc3ccc(Cl)cc3)O[C@H](CO)[C@@H]1O2	i
O=C(C[C@@H]1CC[C@H](NS(=O)(=O)c2ccccc2)[C@H](CO)O1)NCCN1CCCCC1	i
Cc1cc(C)nc(SCC(O)COc2ccc(Cl)cc2)n1 (centres undefined)	i
C[C@@H]1CN([C@@H](C)CO)C(=O)c2cc(C3=CCCC3)cnc2O[C@@H]1CN(C)C(=O)c1ccccc1	i
CCCN(CCC)Cc1c(C(=O)O)nnn1-c1nonc1N	i
O=C(C[C@H]1CC[C@H](NS(=O)(=O)c2ccc(F)cc2)[C@H](CO)O1)NCc1ccc(Cl)c(Cl)c1	i
CN(C)c1nc(N)nc(CSc2nnnn2-c2ccccc2)n1	i
C[C@@H]1CN([C@@H](C)CO)C(=O)CCCn2nncc2CO[C@@H]1CN(C)Cc1ccc(Cl)c(Cl)c1	i
O=C(CSc1n[nH]c(-c2ccc(Cl)cc2)n1)Nc1ccc(F)c(Cl)c1	i
NC(=O)COc1ccc(NC(=O)c2cc(-n3cnnc3)ccc2Cl)cc1	i
C[C@H](NC(=O)C[C@H]1C=C[C@H](NC(=O)C2CC2)[C@H](CO)O1)c1ccccc1	i
CC(=O)Nc1ccc(C(=O)CSc2nc3ccccc3c(=O)[nH]2)cc1	i
Cc1ccc(N(C(C)C(=O)Nc2cc(Cl)ccc2Oc2ccccc2)S(C)(=O)=O)cc1C (centres undefined)	i
NC(=O)[C@@H]1[C@H]2C(=O)O[C@H](c3ccccc3)[C@H](c3ccccc3)N2[C@H](c2ccccc2OCCO)[C@@]12C(=O)Nc1ccc(C#CCCO)cc12	i
CC(=O)NCCNC(=O)c1cc2ccccc2oc1=O	i
C[C@@H]1CN([C@H](C)CO)C(=O)Cc2cc(NC(=O)C3CC3)ccc2O[C@H]1CN(C)Cc1ccccc1	i
CN(CC(=O)Nc1ccccc1Cl)S(=O)(=O)c1ccc2ccccc2c1	i
C[C@@H]1CN([C@H](C)CO)C(=O)c2cc(-c3ccccc3)cnc2O[C@H]1CN(C)Cc1cccnc1	i
Cc1cc(OCC(=O)Nc2cccnc2)cc(C)c1Cl	i
C[C@H](CO)N1C[C@H](C)[C@H](CN(C)CC2CCCCC2)Oc2c(NC(=O)C3CC3)cccc2C1=O	i
CCN(CC(=O)Nc1ccccc1OC)S(=O)(=O)c1ccc(Cl)cc1	i
C[C@@H]1CN([C@H](C)CO)C(=O)c2cc(C#CCC3CCCC3)cnc2O[C@H]1CN(C)CC1CCOCC1	i
Cc1ccc2cc(OC(=O)c3ccc(Oc4cc(Cl)cc(Cl)c4)o3)ccc2n1	i
CC(C)CC#Cc1cnc2c(c1)C(=O)N([C@@H](C)CO)C[C@@H](C)[C@@H](CN(C)C(=O)Cc1ccccc1)O2	i
Cc1ccc2nc(-c3ccc(C)c(NC(=O)COc4ccc([N+](=O)[O-])cc4)c3)oc2c1	i
C[C@H]1CN([C@@H](C)CO)C(=O)c2cc(C#Cc3cccnc3)cnc2O[C@H]1CN(C)S(C)(=O)=O	i
O=C(Nc1cc2ccccc2s1)Nc1ccc(F)cc1F	i
O=C(NCC[C@@H]1CC[C@@H](NC(=O)C2CC2)[C@@H](CO)O1)c1cc(Cl)cc(Cl)c1	i
CC(C)n1nnc(CC(=O)NN)n1	i
COc1ccc(NC(=O)CSc2nnc(-c3ccc(NC(=O)c4ccc(C)cc4)cc3)n2C)cc1Cl	i
CCN(CC)C(=O)Oc1c(Br)cc(Br)c2ccc(C)nc12	i
O=C(O)CCC(=O)Nc1ccc(NC(=O)c2ccccc2)c(Cl)c1	i
Cc1ccc(-c2cc(C(=O)Nc3sc(C)c(-c4ccccc4)c3C(N)=O)c3ccccc3n2)o1	i
Oc1c(C(Nc2ccccn2)c2ccccn2)cc(Cl)c2cccnc12 (centres undefined)	i
CC(C)C#Cc1cnc2c(c1)C(=O)N([C@@H](C)CO)C[C@H](C)[C@@H](CN(C)C(=O)CC1CC1)O2	i
CCC1CN2CCc3cc(OC)c(OC)cc3[C@@H]2C[C@@H]1C[C@H]1NCCc2cc(OC)c(OC)cc21 (some centres undefined)	i
COc1cccc(C(=O)COc2ccc(NC(=O)c3ccccc3Cl)cc2)c1	i
O=c1[nH]cnc2c1cnn2Cc1ccc(Cl)cc1	i
O=C(Cn1c(=O)oc2ccccc21)Nc1ccc(S(=O)(=O)N2CCCCC2)cc1	i
CC1(C)CC(NC(=O)C(=O)NCC2COc3ccccc3O2)CC(C)(C)N1 (centres undefined)	i
C[C@H]1CN([C@@H](C)CO)C(=O)c2cc(C#CC3CC3)cnc2O[C@H]1CN(C)C(=O)c1ccccc1	i
COC(=O)CN(c1ccc2c(c1)OCCO2)S(C)(=O)=O	i
Cc1cccc(OCC(=O)Nc2cccc(-c3nc4ccccc4s3)c2)c1C	i
O=C(CN1C(=O)c2ccccc2C1=O)Nc1ccc(NC(=O)c2ccccc2F)cc1	i

Next section.
SMILES	ID4 SMM
O=C(O)CCC(=O)Nc1ccc(Br)cc1C(=O)c1ccccc1	i
Cc1cccc(NC(=O)CSc2nnc(-c3ccco3)n2-c2ccccc2)c1C	i
Fc1cccc(Cl)c1CN1CCN(CCCNc2ncnc3scc(-c4ccccc4)c23)CC1	i
O=C(C[C@@H]1CC[C@H](NC(=O)c2cccc(F)c2)[C@@H](CO)O1)NCc1ccccc1	i
O=C(NCCCN1CCOCC1)C1CC(c2cccc(Br)c2)=NO1 (centres undefined)	i
Cc1cc(C)c(OCC(=O)Nc2nnn(C)n2)c(Br)c1	i
CC(C(=O)Nc1cccc2cccnc12)N1C(=O)c2ccccc2C1=O (centres undefined)	i
C/C=C/c1ccc2c(c1)O[C@H](CN(C)C)[C@@H](C)CN([C@H](C)CO)S2(=O)=O	i
C[C@@H]1CN([C@H](C)CO)C(=O)c2cc(C3=CCCC3)cnc2O[C@@H]1CN(C)C(=O)c1ccccn1	i
CCOC(=O)c1c(NC(=O)C(C)Oc2ccc3c(C)cc(=O)oc3c2)sc2c1CCCC2 (centres undefined)	i
Cc1csc(SCC(=O)Nc2ccc3c(c2)OCCO3)n1	i
COc1ccc(C(=O)Nc2ccccc2)cc1S(=O)(=O)Nc1cccnc1	i
COC(=O)c1ccccc1NC(=O)c1ccc(NC(=O)CSc2ccc(Cl)cc2)cc1	i
CC1=C(C(=O)OC(C)C(C)(C)C)C(c2cccc(Br)c2)NC(=O)N1 (centres undefined)	i
CS(=O)(=O)N(CC(=O)Nc1ccc2ccccc2c1)c1cc(Cl)c(Cl)cc1Cl	i
O=C(CSc1nnc(-c2ccc([N+](=O)[O-])cc2)n1-c1ccccc1)Nc1ccc(F)cc1	i
COc1ccc(Cl)cc1NC1=NC2CS(=O)(=O)CC2S1 (centres undefined)	i
COc1ccc(CCN2C(=O)C(C)SC2c2cccnc2)cc1 (centres undefined)	i
CO[C@H](CN(C)Cc1ccc2c(c1)OCO2)[C@@H](C)CN(C(=O)c1ccccc1)[C@H](C)CO	i
CC(NS(=O)(=O)c1ccc(F)cc1)C(=O)Nc1ccc(F)c(Cl)c1 (centres undefined)	i
O=C(C[C@H]1CC[C@@H](NC(=O)c2cccc(F)c2)[C@H](CO)O1)NCc1ccc(Oc2ccccc2)cc1	i
C[C@H](CO)N1C[C@H](C)[C@H](CN(C)C(=O)C2CC2)Oc2cc(-c3ccc(C#N)cc3)ccc2S1(=O)=O	i
O=C(N[C@H]1C=C[C@H](CC(=O)N2CCc3ccccc3C2)O[C@H]1CO)C1CC1	i
CC(=O)N(C)C[C@@H]1Oc2ncc(-c3cccc(F)c3)cc2C(=O)N([C@@H](C)CO)C[C@@H]1C	i
COc1ccc(S(=O)(=O)N(C)CC(=O)Nc2cccc(Cl)c2C)cc1OC	i
Cc1nn2c(CN(c3ccccc3)S(=O)(=O)c3ccccc3)nnc2c2ccccc12	i

Compound activity: PubChem BioAssay, Broad Institute
